Source: PubChem (several laboratories)
A1 inh – inhibitors of the anti-apoptotic protein A1, read as caspase activation; MEF A1-2A-BIM cells, Caspase-Glo 3/7 luminescence, 3 h; percent of clofoctol response, vehicle zero; caspase activation, % (no concentration beside the values); 330,000 compounds, 0.066% hits;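 active means over half of replicate activation scores above 10%, or exactly half above 10 with the replicate mean above 10; inconclusive means replicate mean below 10 yet half the replicates above 10; inactive means over half of replicates below 10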;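 further: wells of about 30 µL received 50 nL stock; many hits fall short of the cut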
Beta cell apopt – blocks beta cell apoptosis | INS-1E cytokine-induced death, ATP luminescence, 48 h; percent of positive-control rescue, neutral wells zero | protection from apoptosis, % (test concentration not listed) | 300,000 compounds, 0.8% hits | AID 435005;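 active means all replicates at 75% or more, or half of them and the mean; inconclusive means half reach 75% but not the mean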;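 further: 0% = cytokine-treated negative control wells and 100% = positive control rescue; higher means more ATP so stronger rescue from cytokine killing; wells of about 40 µL received 100 nL stock; the first replicate is given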
AF4-AF9 inh – inhibitors of human MLL-AF4/AF9 interaction. AlphaScreen, biotin-AF4 peptide binding to FLAG-AF9. inhibition, % at 10 µM. 350,000 compounds, 0.47% hits. AID 651704;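 active means every replicate reaching a set inhibition limit, whatever the replicate mean, cut at about 25% in these data; inconclusive means mean inhibition reaches that limit but some replicates miss it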;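 further: 0% = plate neutral control median and 100% = total signal loss; the record names both 10 and 1 µM as test concentration; the first replicate is given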
Target sequence (P42568 whole entry, looked up): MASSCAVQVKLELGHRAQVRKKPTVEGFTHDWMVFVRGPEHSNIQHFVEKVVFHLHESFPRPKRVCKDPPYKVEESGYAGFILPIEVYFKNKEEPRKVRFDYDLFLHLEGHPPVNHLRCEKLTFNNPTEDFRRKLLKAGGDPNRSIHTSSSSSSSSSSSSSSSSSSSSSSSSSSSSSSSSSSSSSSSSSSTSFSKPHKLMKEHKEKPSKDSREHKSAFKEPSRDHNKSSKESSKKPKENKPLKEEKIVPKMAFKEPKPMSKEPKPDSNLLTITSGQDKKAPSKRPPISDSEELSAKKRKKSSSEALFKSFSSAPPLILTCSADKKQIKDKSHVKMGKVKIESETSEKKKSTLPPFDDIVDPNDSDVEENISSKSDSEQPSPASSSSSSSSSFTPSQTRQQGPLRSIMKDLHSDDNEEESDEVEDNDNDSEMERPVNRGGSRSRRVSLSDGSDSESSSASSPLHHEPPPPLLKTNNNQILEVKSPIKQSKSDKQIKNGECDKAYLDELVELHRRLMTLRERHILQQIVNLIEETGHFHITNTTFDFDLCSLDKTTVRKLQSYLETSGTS
Calb FLC – affects C. albicans growth with fluconazole; C. albicans CaCi-2 (fluconazole-resistant clinical isolate) + fluconazole, Alamar Blue growth, 48 h; growth inhibition, % (no concentration beside the values); 300,000 compounds, 0.57% hits; AID 1979;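 active means most replicates above 75%; inconclusive means exactly half above 75%; inactive means most below 75%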;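 further: all wells also contain fluconazole at 8 µg/ml as a sub-toxic cotreatment; 0% = median of DMSO wells and 100% = median of geldanamycin control wells; wells of about 8 µL received 7.5 nL stock; the first replicate is given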
Vif A3G – HIV-1 Vif–A3G interaction blockers – biochemical, TR-FRET, GST-Vif 1-94, biotin-A3G peptide, dose response retest, primary screen (AID 1117319); 260,000 compounds, 0.57% hits; one-dose inhibition, %; IC50 in µM for titrated hits; TR-FRET GST-Vif / biotin-A3G peptide binding; higher % means a stronger effect; test concentration not given here; strong numbers were not always called active;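 active means above the screen mean plus three standard deviations and confirmed in dose response; inconclusive means results disagree or hit not tested in dose response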;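 further: Vif residues 1-94 fused to GST binding biotinylated APOBEC3G peptide 110-148; 0% = full assay without inhibitor and 100% = GST in place of GST-Vif; retest series ran down from 100 µM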
RanGTP-Impb inh – inhibitors of RanGTP-importin-beta interaction, primary screen, biochemical, FRET, CFP-Ran, YFP-importin-beta, homogeneous. cell-free CFP-Ran/YFP-importin-beta FRET ratio. inhibition, % (concentration not given with the values). 300,000 compounds, 1.1% hits. AID 2216;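 active means most replicates above 15%; inconclusive means exactly half above 15%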;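 further: 0% = DMSO wells and 100% = Ran loaded with GDP instead of GTP; wells of about 40 µL received 100 nL stock; the first replicate is given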
rRNA inh HTS – selective bacterial rRNA inhibition in E. coli | E. coli WT GFP vs humanized-ribosome RFP mutants, fluorescence, 24 h; active compounds read low; DMSO median 0, no signal -100 | GFP signal change (wild-type ribosome), % (test concentration not listed) | 350,000 compounds, 1.6% hits | AID 720706;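 active means significant combined selectivity score with lowered wild-type GFP, culture density cut under 30%, mutant RFP and density less affected; inactive means any of these conditions unmet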; further: one replicate is shown; some compounds called inactive have numbers as strong as hits
T cruzi inh – T. cruzi replication inhibition. T. cruzi beta-gal in NIH3T3, luminescence, 90 h. inhibition, % (test concentration not listed). 300,000 compounds, 1.4% hits. AID 1885;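 active means mean inhibition across valid replicates above about 55%, limit read from the data; inconclusive means mean below that limit but half or more replicates reach it; inactive means mean below it, under half of replicates reach it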;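 further: signal also drops with host cell toxicity which is not excluded here; 0% = plate median of DMSO wells and 100% = zero luminescence signal; higher percent means less beta-gal luminescence so fewer parasites; stock transfer was 50 nL into about 50 µL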
rRNA inh HTS OD600 – further read-out of rRNA inh HTS, marked with its call; OD600 change, %; measured here: OD600 growth;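 optical density of the mix in the first replicate; 0 = DMSO median and -100 = no signal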
rRNA inh HTS RFP – further read-out of rRNA inh HTS, marked with its call; RFP signal change, %; measured here: RFP humanized mutant strains;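 first replicate; 0 = DMSO median and -100 = no signal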
Active calls of the source: *; ? = inconclusive; . = not tested or not shown. Some of the compounds tested; count on the stated rates, not on these rows.

SMILES | A1 inh | Beta cell apopt | AF4-AF9 inh | Calb FLC | Vif A3G | RanGTP-Impb inh | rRNA inh HTS | rRNA inh HTS OD600 | rRNA inh HTS RFP | T cruzi inh
Cc1ccccc1OCC(=O)N1N=C(C(F)(F)F)CC1(O)C(C)(C)C (stereo unspecified) | -0.2 | 9.5 | . | -12.2 | 14.3% | 0.4 | . | . | . | 21.2
O=c1ncn(-c2cccc(F)c2)c2ncccc12 | 1.0 | -3.6 | . | -20.6 | -0.3% | 1.1 | . | . | . | -10.3
Oc1cccc(C2c3[nH]c4ccccc4c3CCN2Cc2cnn(-c3ccccc3)c2)c1 (stereo unspecified) | 0.0 | 2.6 | 11.1 | 42.6 | 3.7% | 1.5 | -48.7 | -78.0 | -10.8 | 19.1
CCN(CC)S(=O)(=O)c1cccc(C(=O)N[C@H](C(=O)O)C(C)C)c1 | -0.3 | -8.0 | . | -1.9 | 9.8% | 1.3 | . | . | . | -3.8
COc1ccccc1C(=O)NC1CCCc2ccccc21 (stereo unspecified) | -0.2 | -8.8 | -1.4 | 49.9 | . | -0.8 | -4.9 | 0.2 | -1.5 | 10.2
Cc1ccc(S(=O)(=O)NC(=O)c2ccc(-c3ccc(-c4ccccc4)cc3)o2)c(C)c1 | -1.3 | 1.1 | . | 3.3 | 3.6% | 3.4 | . | . | . | -15.8
O=C(O)c1cc2c([nH]c1=O)CCCC2 | -0.9 | -10.7 | . | -0.5 | 0.3% | -2.7 | . | . | . | -11.6
N#Cc1cc2cc3c(cc2nc1SCC(=O)N1CCOCC1)OCO3 | 1.4 | 9.0 | -2.0 | -1.3 | . | 0.6 | 9.0 | 14.9 | -0.3 | 9.8
CC[C@H]1OC(=O)[C@H](C)[C@@H](O[C@H]2C[C@@](C)(OC)[C@@H](O)[C@H](C)O2)[C@H](C)[C@@H](O[C@@H]2O[C@H](C)C[C@H](N(C)C)[C@H]2O)[C@](C)(O)C[C@@H](C)C(=NOCOCCOC)[C@H](C)[C@@H](O)[C@]1(C)O | 0.4 | -7.5 | -8.3 | . | . | 0.1 | -2.6 | -12.1 | 11.6 | 14.0
COc1ccccc1-n1ccnc1SCC(=O)NCC1CCCO1 (stereo unspecified) | 0.0 | 2.2 | 0.1 | 11.8 | . | 1.0 | 2.9 | 6.5 | -1.6 | -18.2
CCCCSc1c(C)c2cc3c(cc2[nH]c1=O)OCO3 | 0.5 | 11.2 | 3.9 | 0.1 | -11.4% | -0.8 | 9.8 | 2.8 | -7.0 | 17.5
c1ccc2cc(Sc3ncnc4c3oc3ccccc34)ccc2c1 | -1.4 | . | . | -6.2 | -3.7% | -1.6 | . | . | . | -14.1
CCOc1ccc(/C=C2\CCc3ccccc3C2=O)cc1 | -7.3 | 3.3 | 0.7 | . | -6.0% | 2.8 | 2.3 | 3.4 | -0.2 | 10.9
CCc1ccc(NC(=O)CSc2nncn2-c2cccnc2)cc1 | 0.5 | -5.8 | -1.9 | 14.6 | -8.5% | 4.6 | 0.2 | 10.5 | -0.6 | -16.1
O=C(CCn1cnc2ccccc2c1=O)Nc1nc(-c2ccc(Br)cc2)cs1 | 2.8 | 8.9 | -5.8 | -5.9 | . | 1.6 | 5.5 | 10.6 | -5.2 | -12.7
Cc1cccc(C(=O)NCC(=O)OCC(=O)NC2CCCCCCC2)c1 | 0.3 | -8.4 | 1.7 | -8.1 | -2.9% | -1.5 | 0.2 | -1.7 | -0.6 | -6.7
Cc1nc2ccccc2c(=O)n1NC(=O)c1ccc(F)cc1Cl | -0.3 | 6.8 | . | -0.9 | -4.8% | -0.7 | . | . | . | 5.5
CC1CCCN(C(=O)Cn2c(-c3nonc3N)nc3ccccc32)C1 (stereo unspecified) | 0.5 | 5.2 | . | 5.6 | 2.6% | -2.1 | . | . | . | -3.1
CS(=O)(=O)c1cc([N+](=O)[O-])c(Sc2nc3ccccc3[nH]2)c([N+](=O)[O-])c1 | -0.3 | 8.8 | -4.9 | 11.8 | ? | 1.8 | 8.6 | 6.8 | -8.5 | ?
CS(=O)(=O)NCCSCc1c(Cl)cccc1Cl | -0.4 | -3.6 | . | -5.1 | 0.5% | 4.4 | . | . | . | 74.9*
CCOc1cc(NC(=S)NCC2CCCO2)c(OCC)cc1NC(=O)CC (stereo unspecified) | 0.6 | -4.3 | 0.8 | 11.5 | . | 2.8 | 7.1 | 8.6 | -0.5 | 10.3
CCCCn1c(SCC(=O)c2ccc3c(c2)NC(=O)CO3)nc2cc(S(N)(=O)=O)ccc21 | 1.0 | 0.0 | -0.5 | 5.5 | -56.3% | 1.0 | -12.2 | 5.4 | 13.3 | 6.7
COc1ccc(/C(N)=N/OC(=O)CSc2ccc(C)cc2)cc1OC | -0.5 | -12.2 | . | -3.6 | 6.7% | 1.3 | . | . | . | 4.4
COc1ccc(NC(=S)N2CCN(Cc3ccccc3)CC2)c(OC)c1 | 0.4 | -6.2 | 2.4 | 7.5 | -0.4% | 0.7 | 15.9 | 8.5 | 3.5 | -11.0
COc1ccc(C2C(C(=O)Nc3ccc(F)cc3)=C(C)Nc3nc(CCCO)nn32)cc1 (stereo unspecified) | -0.6 | 0.2 | -0.8 | 19.9 | -0.4% | 2.1 | 1.5 | 8.9 | -1.4 | -12.1
Continuation.
SMILES | A1 inh | Beta cell apopt | AF4-AF9 inh | Calb FLC | Vif A3G | RanGTP-Impb inh | rRNA inh HTS | rRNA inh HTS OD600 | rRNA inh HTS RFP | T cruzi inh
O=[N+]([O-])c1ccc(COc2cccc(CNc3ccc(F)cc3)c2)cc1 | -0.7 | -3.6 | . | 14.0 | 26.4% | 1.9 | . | . | . | -11.3
CCOC(=O)C(NCc1ccc2c(c1)OCO2)(NC(=O)CC)C(F)(F)F (stereo unspecified) | 0.3 | -7.1 | . | -7.9 | 0.7% | -0.1 | . | . | . | -6.8
CC(=O)N(C)C(c1ccc(N(C)C)cc1)c1nnnn1-c1c(C)cccc1C (stereo unspecified) | 0.7 | -13.6 | -2.8 | -0.7 | -3.1% | 1.2 | -10.2 | -12.8 | 0.8 | -1.2
CC(C)c1ccc(CNc2nc3nc4c(c(=O)n3[nH]2)CCC4)cc1 | -0.1 | 0.4 | -1.8 | 1.2 | 2.1% | -4.4 | 15.7 | 3.3 | 1.6 | 0.7
COc1ccccc1CC(NC(C)=O)C(=O)NC1CCN(C(=O)Nc2ccccc2F)CC1 (stereo unspecified) | -0.3 | -9.0 | 0.9 | -10.8 | -3.2% | ? | 9.6 | 11.0 | 0.5 | -8.4
CCN1CCN(S(=O)(=O)c2cccc(S(=O)(=O)N3CCOCC3)c2)CC1 | -0.4 | 4.1 | -1.1 | -9.0 | . | 1.6 | 15.9 | 5.8 | -0.6 | -6.3
COCCN1C(=O)C(=O)/C(=C(/O)c2ccc(S(=O)(=O)N3CCOCC3)cc2)C1c1ccc(O)c(OC)c1 (stereo unspecified) | 1.2 | 1.6 | . | -8.1 | . | 0.6 | . | . | . | -7.9
CN(C)c1ccc(C(=O)c2ccccc2)cc1 | -5.4 | . | . | 3.0 | 7.4% | 7.2 | . | . | . | -5.6
COC(=O)c1cc2occc2n1Cc1nc(-c2ccccc2F)oc1C | -0.2 | -3.0 | 8.1 | 0.0 | 2.5% | -5.4 | 4.0 | 4.3 | 5.3 | 5.3
CC(=O)Nc1cccc(NC(=O)Nc2cccc(F)c2)c1 | -1.4 | 5.1 | -1.6 | 51.1 | -0.1% | ? | 1.3 | -7.9 | -4.2 | 25.9
CCOc1ccc2nc(NC(=S)N(C)C)sc2c1 | . | 37.1 | . | 103.8* | 7.8% | -4.6 | . | . | . | 41.0
O=C(/C=C/c1ccc2c(c1)OCO2)NCCSCc1ccc(Cl)cc1 | -0.2 | -3.0 | . | -3.5 | 5.7% | 0.4 | . | . | . | -5.7
COC(=O)C1CCN(C(=O)CCCOc2ccccc2)CC1 | -3.0 | . | . | -2.1 | 8.9% | -0.8 | . | . | . | -11.0
Cc1cccc(Oc2c([N+](=O)[O-])c(=O)n(C)c3ccccc23)c1 | 0.2 | -2.5 | -2.6 | -3.4 | 15.9% | 5.3 | 8.0 | 4.7 | 0.6 | 4.5
Cc1cc(C)c(C)c(S(=O)(=O)Nc2ccccc2C(=O)NCCCn2ccnc2)c1C | . | . | . | 9.9 | -3.2% | 5.5 | . | . | . | 20.3
N/C(=N\OC(=O)c1cccs1)c1cccc(Br)c1 | -3.0 | -5.6 | -3.8 | -2.1 | 7.1% | 7.7 | -1.0 | -0.6 | -6.7 | 4.6
CC(=O)c1ccc(N2CCN(C(=O)Cc3cccs3)CC2)cc1 | -1.7 | 0.2 | 0.3 | -14.0 | . | -5.0 | . | . | . | 24.8
COc1ccc(-n2nc(C(=O)NCC(=O)NCCCN3CC(C)CC(C)C3)c3ccccc3c2=O)cc1Cl (stereo unspecified) | 1.5 | -11.9 | 1.1 | -2.5 | . | 6.1 | 1.2 | -0.8 | 3.4 | 42.7
COc1ccccc1CNC(=O)C1CCC(CNS(=O)(=O)c2ccc(F)cc2)CC1 (stereo unspecified) | -0.5 | -3.5 | -1.7 | -5.8 | 3.0% | 1.2 | 5.9 | 4.1 | 0.0 | -3.1
CCOc1cc(CNCCCN2CCOCC2)ccc1OCC(=O)NC(C)(C)C | 0.7 | -17.4 | -0.7 | -14.6 | 3.2% | -0.2 | 18.9 | 15.9 | -4.1 | 62.9*
COc1ccc2cc(C(C)C(=O)OC(C)C)ccc2c1 (stereo unspecified) | 0.9 | -2.2 | 1.7 | . | . | . | 3.0 | 0.3 | -5.7 | .
O=C(c1ccccc1)N1CCC(c2nc(-c3ccc(S(=O)(=O)NCC4CCCO4)cc3)no2)CC1 (stereo unspecified) | -0.3 | 41.0 | . | 4.5 | 12.4% | 0.2 | . | . | . | -10.2
Clc1ccc(CNc2ccc(N3CCN(Cc4ccccc4)CC3)cc2)cc1 | 0.2 | 16.6 | 10.4 | -37.8 | 2.0% | -2.7 | -2.6 | -5.8 | 2.2 | 1.4
Cc1c([C@H]2[C@@H](CC#N)C2(C)C)c2ccccc2n1C | -0.6 | -3.3 | . | 4.5 | -1.5% | 3.4 | . | . | . | 15.2
CCOC(=O)CSc1nc2ccc(C)cc2n2cnnc12 | 0.0 | -5.6 | 5.7 | -7.9 | . | 2.1 | 8.4 | 6.1 | 0.0 | -8.6
Cc1c(OCC(=O)NCC2CCC(C(=O)NCCCO)CC2)ccc2c(-c3ccccc3)cc(=O)oc12 (stereo unspecified) | 0.2 | 0.4 | -1.2 | -0.1 | -4.0% | -5.6 | 4.3 | 7.9 | 0.8 | -0.8
